Screening data deposited in PubChem BioAssay by ICCB-Longwood Screening Facility, Harvard Medical School.
MgrA-DNA mod = alters Staphylococcus aureus MgrA binding to DNA | fluorescence polarization | inhibition, %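 (about 10 µg/mL by stock and volumes)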 | actives 0.13% (n = 84,000);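 active means above 50% in either of two replicates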;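 further: 0% = protein plus DNA without compound and 100% = DNA alone without protein; higher means less MgrA bound to DNA so lower polarization; one replicate is shown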
S aureus helic = S. aureus DNA helicase inhibition | purified S. aureus helicase, fluorescence unwinding assay; about half of the hits fall short of the stated cut | inhibition, %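 (tested at about 80 µM)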 | actives 0.05% (n = 120,000);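 active means both duplicates at 50% or more, or one of them with a favoured structure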;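 further: 0% = mean of negative control wells and 100% = mean of positive control wells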
* hit, by the source's call; · = not tested or not shown. Not all compounds are listed; count on the stated rates, not on these rows.

MgrA-DNA mod | S aureus helic | molecule
3.1 | · | O=S(=O)(NCCCN1CCOCC1)c1cc(C(F)(F)F)cc(C(F)(F)F)c1
· | -24.0 | COc1cc(S(=O)(=O)N2CCCCCC2)c(OC)cc1Br
0.8 | 7.0 | CSC(=S)OC12CC3CC(CC(C)(C3)C1)C2
-0.8 | 16.0 | O=C(NC(c1ccccc1)c1ccccc1)c1ccc2c(c1)OCCO2
1.7 | · | N#C/C(=C\c1ccccc1Cl)S(=O)(=O)c1ccccn1
· | -3.0 | Cc1ccc(CNC(=O)C2CCCN(S(=O)(=O)N3CC(C)CC(C)C3)C2)cc1 (stereo unspecified)
0.3 | 19.0 | Cc1cc(C)nc(NC(N)=NCCc2c[nH]c3ccccc23)n1
-1.6 | 10.0 | CC(NC(=O)c1ccc2nc[nH]c2c1)c1ccccc1 (stereo unspecified)
· | 14.0 | O=[n+]1c2c(n([O-])c3ccccc31)CCC2
-1.1 | 10.0 | Cc1nccc2[nH]c(=O)c(C(=O)NC3CCC(C)CC3)cc12 (stereo unspecified)

A portion of the results above:
MgrA-DNA mod | S aureus helic | molecule
3.1 | · | O=S(=O)(NCCCN1CCOCC1)c1cc(C(F)(F)F)cc(C(F)(F)F)c1
· | -24.0 | COc1cc(S(=O)(=O)N2CCCCCC2)c(OC)cc1Br

The results go on.
MgrA-DNA mod | S aureus helic | molecule
· | 18.0 | CCOC(=O)/C(C#N)=N/Nc1ccsc1C(=O)OC
-0.1 | -23.0 | Cc1ccc(C(=O)CCC(=O)NC2=NCCS2)cc1
-1.1 | 0.0 | COc1cc2ccccc2cc1C(=O)NCCC12CC3CC(CC(C3)C1)C2
· | 5.0 | CC(Sc1nc(C2CC2)n(-c2ccccc2)n1)C(=O)Nc1ccnn1C(C)C (stereo unspecified)
· | 0.0 | CCOC(=O)c1[nH]c2ccccc2c1NC(=O)CCc1ccccc1
-2.6 | 13.0 | NCCNC(=O)c1ccco1
· | -47.0 | Cc1c(N=C2NC(=O)C(CC(=O)Nc3ccccc3)S2)c(=O)n(-c2ccccc2)n1C (stereo unspecified)
0.5 | · | CCc1nc(CN2CCN(c3cc(C(F)(F)F)ccn3)CC2)c(C)[nH]1
0.0 | · | O=C1c2c(c3ccccc3n2Cc2ccccc2)CCN1c1ccccc1
1.4 | 13.0 | CCN1C(=O)/C(=C2/C(=O)N(Cc3ccc(Cl)cc3)c3ccccc32)SC1=S
-0.5 | -11.0 | O=C(COC(=O)c1ccccc1Cl)c1cc2ccccc2o1
-0.6 | 6.0 | CCOC(=O)c1ccc(S(=O)(=O)NC2CCCCCCC2)n1C
-0.9 | 14.0 | c1ccc(CN2CN=C(Nc3nc4ccccc4s3)NC2)cc1
· | -12.0 | OCCCCn1c(-c2ccccc2)cc2ccccc21
-5.9 | · | O=C(O)COCC(=O)Nc1ccc(-n2ccc(C(F)(F)F)n2)cc1
· | 14.0 | Cc1nnc2c3ccccc3nc(Nc3ccc4c(c3)OCO4)n12
-0.4 | 4.0 | O=C(O)CCSCc1ccc(Cl)cc1
-0.3 | · | Cn1c(=O)c(-c2noc(-c3ccccc3)n2)cn(-c2ccccc2)c1=O
0.4 | · | NC(=O)NCc1ccc(F)cc1
· | 6.0 | COc1ccc(C2CC(c3ccccc3)=NN2C(=O)Cn2nnc3ccccc32)cc1 (stereo unspecified)
-0.7 | · | CSC1=CC(=O)CC(C)(C)S1
-1.2 | · | COc1cccc(OC)c1CNC(=O)c1cnccc1C(F)(F)F
· | 11.0 | Cc1cccc(NC(=O)CSc2nsc(SCC(=O)Nc3cccc(C)c3)n2)c1
1.8 | -5.0 | Cc1ccc(CN2C(=O)C(C)(C)Oc3ccc(C(=O)NC4CC4)cc32)cc1
· | 5.0 | Cc1cc(NC(=O)c2ccc(S(=O)(=O)N3CCc4ccccc43)cc2)no1
0.1 | -7.0 | CCCC(=O)C1CCOC(C)(CC)C1 (stereo unspecified)
· | -4.0 | O=C(NC1(C(F)(F)F)Oc2ccccc2O1)N1CCCC1
· | 18.0 | CC(C)(C)c1nnc2sc(SCC(=O)Nc3ccc(Br)cc3)nn2c1=O
· | 1.0 | CNC(=O)c1cc(Br)cc(S(=O)(=O)N2CCC(C)CC2)c1
-1.4 | -7.0 | CCC(=O)OCC(=O)Nc1ccc(Br)cc1Br
1.6 | · | S=C1NCN(CCN2CCCC2)CN1
· | 8.0 | Nc1ccccc1C(=O)N1CCCCCC1
· | -11.0 | C=CCNc1nc(C(=O)OCC(=O)Nc2scc(-c3cccs3)c2C(=O)OCC)cs1
· | 10.0 | Cn1cccc1Cc1nnc(SCC(=O)NO)n1-c1ccc(OC(F)(F)F)cc1
-1.9 | 2.0 | CCc1ccccc1N(C)S(=O)(=O)c1c(C)noc1/C=C/N1CCOCC1
· | 4.0 | CC1(C)Oc2ccc3ccc(=O)oc3c2C(N2CCCCC2)C1O (stereo unspecified)
· | 16.0 | CCOC(=O)CSC1=C(C#N)C(c2ccccc2)CC(=O)N1 (stereo unspecified)
-1.6 | 10.0 | Cc1cc(C(=O)OCC(=O)N2CCc3ccccc32)c(C)o1
4.5 | 3.0 | O=C(Oc1c(Cl)cc(Cl)c2cccnc12)N1CCCCCC1
-0.9 | 13.0 | O=C(Nc1scc(-c2cccs2)c1C(=O)O)c1cccs1
0.4 | 1.0 | CCCNC(=O)c1cccc(C)c1
18.2 | · | Cc1noc(C)c1-n1sc(=O)n(CC2CC2)c1=O
· | 40.0 | Cn1c(SCC(=O)N2CCc3ccccc32)nc2c(c1=O)SCC2
· | -17.0 | N#CC(C#N)=CNCC(c1ccc(F)cc1)N1CCOCC1 (stereo unspecified)
· | -10.0 | S=c1[nH]nc(-c2c(-c3ccccc3)c(-c3ccccc3)nn3nnnc23)o1
-0.5 | 9.0 | COc1cc(CN2CCN(C(=O)c3cccc4ccccc34)CC2)cc(OC)c1OC
1.5 | 2.0 | CC(C)COc1ccc(C(=O)N(C)Cc2ccccc2)cc1
1.8 | -11.0 | CC(C)CCn1c(=O)c2sccc2n2c(CCCC(=O)N3CCCC3)nnc12
-0.7 | · | c1ccc(-c2cnc(-c3ccccc3)nc2)cc1
-2.5 | 16.0 | O=S(=O)(Nc1ccncc1)c1ccccc1

(cont.)
MgrA-DNA mod | S aureus helic | molecule
-0.6 | 6.0 | Cc1oc2cc(OC(C)C)ccc2c(=O)c1-c1ccc2c(c1)OCCO2
· | 28.0 | Nc1cc2c(cc1Cl)OCCCO2
· | -8.0 | CCS(=O)(=O)Nc1ccc(C2=NN(C(=S)Nc3ccccc3)C(c3ccco3)C2)cc1 (stereo unspecified)
-2.6 | · | CCOc1ccc(NC(=O)C2CCN(C(C)=O)CC2)cc1
· | -16.0 | COc1cccc(OCC(O)CN2CCCCC2)c1 (stereo unspecified)
· | 9.0 | CCOc1ccc(N(CC)C(=O)CCc2nc(-c3ccc(OC)cc3)no2)cc1
· | -5.0 | Cc1ccc(C(=O)Sc2nnc3sc4ccccc4n23)cc1
· | -20.0 | CC(=O)NC(C)c1nc2ccccc2[nH]1 (stereo unspecified)
· | -9.0 | Cc1ccc(S(=O)(=O)N(C)CCCc2nc3ccccc3[nH]2)cc1
1.6 | -13.0 | CC(C)c1ccccc1NC(=O)COC(=O)c1ccc(N(C)C)cc1
· | -9.0 | COC(=O)c1cc(CSc2nnc(NC3CCCCC3)s2)oc1C
· | 10.0 | COC(=O)CCC(=O)Nc1sc(C)c(C)c1C(N)=O
-1.6 | · | Cc1nc(-c2cc(C#N)c(SCCNS(=O)(=O)c3ccc(C(C)(C)C)cc3)nc2C)cs1
0.1 | 15.0 | CCc1ccccc1Nc1cc(C(=O)NCC2COc3ccccc3O2)c2ccccc2n1 (stereo unspecified)
· | 8.0 | Cc1ccc(Sc2ncccc2C(=O)Nc2ccnn2C2CCN(C)CC2)cc1
-3.0 | -5.0 | COc1ccc2nc(C)c(C(=O)O)cc2c1
2.6 | 7.0 | COc1ccc(CCN(Cc2cc3cc4c(cc3[nH]c2=O)OCO4)C(=O)c2ccncc2)cc1OC
· | -17.0 | O=C(NC1CCCC1)C1CCC(CNS(=O)(=O)c2ccccc2)CC1 (stereo unspecified)
· | -17.0 | CSc1ncc(C(=O)NC(C)c2ccccn2)n1-c1ccc(F)cc1 (stereo unspecified)
· | -9.0 | O=S(=O)(c1ccc(-n2cccn2)cc1)N(Cc1ccccn1)Cc1ccccn1
· | -16.0 | N#Cc1cc(Cl)c2c(c1)OCCCO2
-0.1 | -4.0 | Cc1cc(Cl)nc2ccc(Cl)cc12
4.3 | 2.0 | O=C(CSc1nc(O)cc(=O)[nH]1)c1ccc(O)cc1O
· | 3.0 | CC1(C(=O)c2ccccc2)C2c3cc(Br)ccc3OC(=O)C21C(=O)NCc1ccccc1 (stereo unspecified)
5.0 | 10.0 | S=c1[nH]nc(-c2cc(-c3ccccc3)n[nH]2)n1C1CC2C=CC1C2 (stereo unspecified)
· | 14.0 | O=C1c2ccccc2C(=O)C1c1ccc(O)cc1
· | 8.0 | N/C(=N/O)c1nn(-c2ccccc2)nc1N1CCCCC1
· | 16.0 | CC(C)c1ccc(-n2nnc3ccccc3c2=O)cc1
· | 3.0 | COc1ccc(-c2noc(COC(=O)c3c4ccccc4cc4ccccc34)n2)c(OC)c1
-1.4 | 13.0 | CCSc1ccsc1C1C(C#N)=C(N)N(c2cccnc2)C2=C1C(=O)CC(C)(C)C2 (stereo unspecified)
-1.4 | · | Cc1cc(-c2noc(-c3cc(C)on3)n2)no1
-1.2 | -13.0 | Nc1ccc(C(=O)OCC(=O)Nc2ccc(Br)cc2Br)cc1
4.8 | 11.0 | COC(=O)c1ccc(OC(=O)c2ccccc2)cc1
-1.4 | 15.0 | CC(C)N(c1nnc(N)s1)C(C)C
· | -5.0 | CC(=O)Oc1ccc2c(=O)c(-c3ccc4c(c3)OCCO4)coc2c1
-1.9 | 13.0 | COC(=O)C1(CO)NC(c2ccc(Cl)cc2)C2C(=O)N(C)C(=O)C21 (stereo unspecified)
2.4 | · | CC1(CO)CSC(Nc2ccc(Cl)c(Cl)c2)=N1 (stereo unspecified)
0.2 | · | CCOC(=O)c1sc(C#N)c2c1CC(C)(C)CC2=O
1.4 | 24.0 | CCN1CCN(C(=O)CN(c2cccc(C(F)(F)F)c2)S(=O)(=O)c2ccc(C)cc2)CC1
· | -12.0 | O=C(c1ccc2nc(N3C(=O)c4ccccc4C3=O)sc2c1)N1CCOCC1

Entries of single compounds as entered above. Order of screens: MgrA-DNA mod	S aureus helic
Shown for COC(=O)C1(CO)NC(c2ccc(Cl)cc2)C2C(=O)N(C)C(=O)C21 (stereo unspecified) : -1.9	13.0
Shown for COC(=O)c1ccc(OC(=O)c2ccccc2)cc1 : 4.8	11.0
Shown for Nc1ccc(C(=O)OCC(=O)Nc2ccc(Br)cc2Br)cc1 : -1.2	-13.0
Shown for O=C(c1ccc2nc(N3C(=O)c4ccccc4C3=O)sc2c1)N1CCOCC1 : ·	-12.0
Shown for Cc1cc(-c2noc(-c3cc(C)on3)n2)no1 : -1.4	·

Next compounds follow.
MgrA-DNA mod | S aureus helic | molecule
-0.1 | 7.0 | CC(C)Nc1nc(NC(C)C)nc(N(C)C)n1
· | 4.0 | CN(C)C(=O)COC(=O)c1cncc(Br)c1
0.5 | 10.0 | O=C(CCCOc1ccccc1)Nn1cnnc1
· | -13.0 | CN1C(C(=O)NC(C)(C)C)=CC(c2cccs2)=NS1(=O)=O
-0.8 | -8.0 | CC(=O)NC(CSCc1ccccc1)C(=O)O (stereo unspecified)
2.5 | 14.0 | CCC1CCc2nc3sc(C(=O)NC(C)c4ccccc4)c(N)c3cc2C1 (stereo unspecified)
· | -3.0 | CC1CCN(c2nc3c([nH]2)c(=O)n(C)c(=O)n3C)CC1
2.0 | 13.0 | COC(=O)CSc1nnc2sc3ccccc3n12
1.8 | 8.0 | COCCNC(=S)N1CCN(S(C)(=O)=O)CC1
3.1 | · | COc1cc(/C=C2\C(=O)N(c3ccc(Cl)c(C(=O)O)c3)N=C2C)ccc1OCc1ccccc1
-0.8 | · | O=C(O)COc1ccc(N=Cc2nc(-c3ccc(Br)cc3)oc2O)cc1
-1.6 | · | CSc1ccncc1C(=O)Nc1ccc(F)cc1F
-3.2 | -13.0 | CC(C)CNC(=O)c1cccc(S(=O)(=O)N2CCCCC2)c1
-2.6 | -1.0 | CC(C)(C)NC(=O)Cn1nc(Cl)nc1Cl
-0.8 | · | COc1ccc(N=CC2=C(O)CC(c3cccs3)CC2=O)cc1 (stereo unspecified)
· | -16.0 | CC(C)(C)NC(=O)CSc1nnc([C@H](Cc2ccccc2)NC(=O)OC(C)(C)C)o1
· | -3.0 | Cc1ccc2cc(-c3noc(C4CCCO4)n3)c(=O)[nH]c2c1 (stereo unspecified)
· | 15.0 | CC(C)(C)C(=O)N1CCN(S(=O)(=O)c2ccccc2)CC1
· | 39.0 | Cc1ccc2nc(NC(=O)C3CCCN(S(=O)(=O)c4ccc(Br)s4)C3)sc2c1 (stereo unspecified)
0.7 | · | Cc1c(C(N)=O)cnn1-c1ccc(Cl)cc1
· | 6.0 | Cn1c(N)c(C(=O)COC(=O)C2CCN(C3=NS(=O)(=O)c4ccccc43)CC2)c(=O)n(C)c1=O
· | -17.0 | CCC(N)c1ccc(C)cc1 (stereo unspecified)
-1.1 | 6.0 | COc1ccc(NC(=O)Nc2ccccn2)cc1
· | -18.0 | CCCN1CNC(=S)N(c2ccccc2OC)C1
2.1 | 12.0 | O=c1[nH]c(=S)[nH]c(O)c1C=Nc1cccc(O)c1
1.8 | 6.0 | NS(=O)(=O)c1ccc(CCNC(=O)c2oc(=O)c3ccccc3c2-c2ccccc2)cc1
-1.8 | · | O=C(CSc1n[nH]c(-c2cccs2)n1)c1ccc(Cl)cc1
0.0 | · | O=C1NC(=S)N/C1=C\c1cc(Br)ccc1OCc1ccc([N+](=O)[O-])cc1
-0.8 | 4.0 | CN1CCC(NCCc2ccccc2)CC1
-1.5 | 14.0 | COc1ccc(C(=O)CSc2nn3c(SCC(=O)c4ccc(OC)cc4)nnc3s2)cc1
· | 3.0 | COC(OC)c1ccc(C#N)c(SCC(=O)c2ccc(Cl)cc2)n1
-0.1 | · | Nc1nnc(-c2cn(-c3ccccc3)nc2-c2ccc(Cl)cc2)o1
